NPYLR7 ag: mosquito NPYLR7 agonism. HEK293T NPYLR7/Galpha15, GCaMP6s calcium fluorescence. 270,000 tested, 0.15% active. activation, % at 10 µM; in the data active = activation above about 40%;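 also: 0% = vehicle and 100% = reference agonist at the receptor; some compounds past the cut are filed as inactive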
NPYLR7 ag max-min: also measured in NPYLR7 ag; calls as there; activation, %; measured here: Max-Min RFU normalised activation; some inactives read as strong as hits;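 span of the calcium signal over five minutes; 0% = vehicle and 100% = native peptide agonist; compound fluorescence can raise it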
Numbers without * were called inactive; & = joins results of further samples.

molecule,NPYLR7 ag,NPYLR7 ag max-min
O=C1CC(C(=O)Nc2cc(C(F)(F)F)cc(C(F)(F)F)c2)c2ccccc2N1 (configuration not stated),2,25
Nc1nc(N2CCN(Cc3ccccc3)CC2)nc(NCCO)c1[N+](=O)[O-],0,-1
CN1CCN(CCOCCOc2ccccc2)CC1,6,3
COc1cccc(C(=O)N2CCN(c3cc(Oc4ccc(F)cc4F)ncn3)CC2C)c1 (configuration not stated),-1,7
CCCCCCCCc1nc(SC)n[nH]1,0,-1
CCSC1CCC1(O)CNCc1cnc(-c2cccs2)s1 (configuration not stated),6,-14
Cc1c(CCC(=O)O)c(=O)oc2cc3occ(C(C)(C)C)c3cc12,0,-2
CSc1cccc(-n2nnc(C(=O)OCc3nc(-c4ccc(C)cc4)oc3C)c2C)c1,8,3
Cc1cccc(C(C(=O)NCc2nc(C)cc(C(F)(F)F)n2)N(C)C)c1 (configuration not stated),7,-2
CC(C)NC[C@@H](O)c1ccc(O)c(O)c1,32&42,29&14
S=c1[nH]nc(-c2snnc2-c2ccccc2)n1-c1ccccc1,-9,-14
Cc1cc(=O)[nH]c(-n2nc(C)c(CCC(=O)NCc3ccc(F)cc3)c2C)n1,2,-1
CC(C)c1ccc(NC(=O)c2ccc(=O)n(-c3ccc(F)cc3)n2)cc1,9,8
COc1ccc(S(=O)(=O)CCC(=O)N(CCN(C)C)c2nc3c(C)ccc(C)c3s2)cc1,1,0
Cc1ccccc1-c1cnc(-c2ccncc2)nc1C1CCCN(C(=O)/C=C/c2ccc(F)cc2)C1 (configuration not stated),15,7
CC(C)(C)c1ccc(C2=NC(=Cc3ccc(C(=O)O)cc3)C(=O)O2)cc1,-3,-3
Cc1noc(C)c1CCC(=O)NC1(c2ccc3c(c2)OCCO3)CCCC1,1,26
COCCNC(=S)NCc1ccc2c(c1)cc(C)n2C,6,8
CC(C)(C#N)c1ccc(NC(=O)NC2CCCC2CO)cc1 (configuration not stated),3,2
CC(C)(Oc1ccc(C(N)=O)cc1)C(=O)N1CCC(c2ccccc2)CC1,-6,-8
COc1cccc(CNCCCN2CCOCC2)c1O,1,13
O=c1cc(N2CCOCC2)oc2c1ccc1ccccc12,1,-6
Cc1ncc([N+](=O)[O-])n1CCNC(=O)[C@H](CC(=O)OC1CCCCC1)NC(=O)OC(C)(C)C,-3,-7
N#CCCn1c(CC(=O)NCc2ccccc2[N+](=O)[O-])nc2ccccc21,-14,-20
CCOc1ccccc1C(=O)N(C)CCCN1c2ccccc2CCc2ccccc21,-8,-14

Single records, from the list above. Order of screens: NPYLR7 ag, NPYLR7 ag max-min
CN1CCN(CCOCCOc2ccccc2)CC1 as listed: 6, 3
Cc1ncc([N+](=O)[O-])n1CCNC(=O)[C@H](CC(=O)OC1CCCCC1)NC(=O)OC(C)(C)C as listed: -3, -7
CC(C)(Oc1ccc(C(N)=O)cc1)C(=O)N1CCC(c2ccccc2)CC1 as listed: -6, -8

New compounds follow.
molecule,NPYLR7 ag,NPYLR7 ag max-min
C=CCn1c(C)cc(C2=NNC(=Nc3ccc(F)cc3)SC2)c1C,1,-2
COc1ccccc1-n1ncc2c(C)nnc(SCc3cccnc3)c21,-10,-17
Cc1c(C(=O)NCc2cccs2)sc(=O)n1CC(=O)c1ccc(F)cc1,1,0
COCCCNC(=O)CN(c1ccc(C)cc1)S(=O)(=O)c1ccc(SC)cc1,-4,-7
Cc1ccc(C)c(S(=O)(=O)N(CC(=O)NC2CCCCC2)Cc2ccco2)c1,8,5
O=C(c1cccs1)N1C[C@H]2OC(=O)N(CCc3ccc(F)cc3)[C@H]2C1,10,6
CC1CCN(c2onc(-c3ccccc3)c2CN(Cc2ccco2)C(=O)C2CC2)CC1,2,4
CCOc1ccc(N2C(=O)NC(=O)/C(=C/c3ccccc3OC)C2=O)cc1,5,4
CCOc1ccccc1-c1nnc(SC(C)C(=O)N2CCNC2=O)o1 (configuration not stated),10,3
CCCSc1ncc(-c2nccn2CCc2scnc2C)cn1,-2,-7
CC(C)Cn1c(CN2CCC(n3cc(C4CC4)nn3)CC2)nc2ccccc21,0,5
CCOC(=O)c1cnc(SCC)[nH]c1=O,3,2
Cc1ccc(C(=O)N(C)CCC(C)O)cc1S(=O)(=O)N1CCCCC1 (configuration not stated),0,0
Cc1ccc2c(c1)N(Cc1cccc(C#N)c1)N=C(C(=O)N1CCCC1)S2(=O)=O,-13,-14
CCCN(Cc1ccccc1O)C(=O)c1ccc(-c2cnco2)cc1,5,1
CCOC(=O)c1c(C)[nH]c(C(=O)C(C)SC2CCCCC2)c1C (configuration not stated),0,0
O=C(NCc1nnnn1C1CCCCC1)C1CC1,23,12
CCc1nc2ccc(C(=O)NC3CCN(C)CC3)cn2c1N(C=O)CC,-6,-11
Cc1cc(F)ccc1CC(=O)N1CCNCC1C(=O)NC1CC1 (configuration not stated),10,2
Cn1c(=O)c2c(ncn2CCCC(=O)NCc2ccco2)n(C)c1=O,1,0
COCCn1c(SCC(=O)Nc2nccs2)nc2c(c1=O)SC(C)C2 (configuration not stated),-8,-10
COc1ccc(OCC(O)CN(CCN2CCOCC2)Cc2ccc(C)cc2)cc1 (configuration not stated),26,26
CCN(CC(=O)N1CCc2sccc2C1COc1ccccc1OC)CC(O)Cc1ccccc1 (configuration not stated),17,15
CC(C)CC(=O)N1CC(=O)N2CCc3cc(F)ccc3C2C1 (configuration not stated),-2,-1
COC(=O)c1cc(NC(=O)CSc2nc(C)nc3sc4c(c23)CCC4)cc(C(=O)OC)c1,-8,-15
Cc1cc2c(=O)n(Cc3ccco3)c(SCC(=O)Nc3cccc(O)c3)nc2s1,-10,-4
O=S(=O)(c1cccs1)N1CCN(Cn2c(CO)nc3ccccc32)CC1,9,5
Cc1c(NCc2cccnc2)cccc1C(=O)NC(C)c1ncn[nH]1 (configuration not stated),-2,-8
CN(C)C(CNC(=O)c1cccc(CN2C(=O)c3ccccc3C2=O)c1)Cc1ccccc1 (configuration not stated),2,3
COc1cc2c(c(OC)c1OC)-c1c(cc3c(c1OC)OCO3)C[C@@H](C)[C@@H](C)C2,7,-3
CN(CC1COc2ccccc2O1)c1cnn(-c2ccccc2)c(=O)c1Cl (configuration not stated),-3,-1
Cc1ccc(C2(O)CCN(CC(=O)NCc3ccccn3)CC2)nc1,-8,-12
CSC1=C(c2ccc(C)cc2)C(=NC(C)(C)C)C1,4,3
NC(=O)[C@@H]1CCCN1C(=O)c1ccc2oc(CCCc3ccccc3)nc2c1,4,3
O=C(CSc1nc2c(c(=O)n1Cc1ccccc1)SCC2)Nc1cccc2ccccc12,5,-6
O=C(CN1CCN(CCC23CC4CC(CC(C4)C2)C3)CC1)N1CCCCC1,1,0
O=C(CSC1=NCCS1)NC1CCCc2ccccc21 (configuration not stated),-3,-3
COc1cccc(-c2nc3ccc(C(=O)NCc4cccc5[nH]ccc45)cc3o2)c1,1,1
NS(=O)(=O)c1cc2c3c(c1)C1C=CCC1C(c1ccc([N+](=O)[O-])cc1)N3CC1CC=CC21 (configuration not stated),-20,-23
CN1CCN(C(CNC(=O)C(C)(C)C)c2ccc3c(c2)CCCN3C)CC1 (configuration not stated),3,0
Cc1ccc(C)c(N2CCN(C(=O)CCc3nnc(-c4cc(C)on4)o3)CC2)c1,18,7
O=C(Nc1nnc(-c2ccc3c(c2)OCO3)s1)C1CCCN1C(=O)c1ccc([N+](=O)[O-])cc1Cl (configuration not stated),22,19
CCC(=O)Nc1ccc(SCC(=O)OCc2ccccc2)nn1,7,-3
Cc1c(Cl)cnc(NC(=O)CSc2nnc(C(F)(F)F)n2C)c1Cl,-7,-8
CC(Oc1ccccc1)C(=O)N1CCN(c2ncnc3c2nnn3-c2ccccc2)CC1 (configuration not stated),-9,-23
CCc1cc(N2CCN(c3cccc(C(F)(F)F)c3)CC2)nc(SCc2ccc(C(=O)NCC3CC3)cc2)n1,11,11
O=C(NCC1Cc2c(F)ccc(-c3ccncc3)c2O1)c1cc(Cl)ccc1F (configuration not stated),17,8
CCNc1ccnc(N2CCN(Cc3cnc(-c4ccco4)nc3)CC2)n1,-3,-5
CCCn1nccc1C(=O)N(C)Cc1ccc2nsnc2c1,3,-1
Cc1ccc(Cc2nc(N3CCCN(C(=O)C(C)Cl)CC3)c3c(-c4cccnc4)noc3n2)cc1 (configuration not stated),17,27

Next section.
molecule,NPYLR7 ag,NPYLR7 ag max-min
CCCC(=O)Nc1ccc(OCc2c(C)noc2C)c(C(C)=O)c1,2,0
Cc1cccc(CN2CCN(C(=O)c3cc(=O)[nH]c4ccccc34)C(C)C2=O)c1 (configuration not stated),11,8
OCCCNc1ncnc2sc3c(c12)CCCCC3,6,5
CNS(=O)(=O)c1cc(C(=O)Nc2ccc(C)c(S(=O)(=O)N(C)C)c2)ccc1Cl,0,-1
COc1cccc(OC)c1-c1cnnc(NCCN2CCOC2=O)n1,10,10
Cc1ccc(C(=O)NCCCOC(C)C)cc1-n1cccc1,3,2
O=C(c1cc(F)cc(F)c1)N1CCC(CCc2ccc(-c3ccccc3)cc2)CC1,0,3
CCOC(=O)[C@@H]1CN(C(=O)c2ccc(NC(C)=O)cc2)[C@H]2c3cccc(C)c3O[C@@H]12,4,16
CCNC(=O)OC1CN(C(=O)Cc2ccc(F)cc2)CCC(=O)N(C)c2ccccc21 (configuration not stated),1,8
Cc1ccc(N2CCN(Cc3ccccc3F)C(C)C2=O)c(C)c1 (configuration not stated),4,13
O=C(c1ccc2c3c(cccc13)CC2)C1CCCN(C(=O)c2cnc3ccccn3c2=O)C1 (configuration not stated),22,4
CCNC(=O)O[C@H]1C(=O)N(C)C2(CCN(C(=O)OCc3ccccc3)CC2)[C@@H]1C(=O)OCC,21,18
CC(=O)N1CCc2nc(C)nc(N3CCOC(C)(C)C3)c2CC1,28,20
CN(CC(F)(F)C(F)F)S(=O)c1ccc2ccccc2c1 (configuration not stated),-2,-4
CC1CN(S(=O)(=O)N2CCN(CC(=O)N(C)c3ccccc3)CC2)CC(C)O1 (configuration not stated),0,1
CCc1c(C)nc(-n2nc(C)cc2NC(=O)CCc2ccc(OC)cc2)[nH]c1=O,6,2
CCc1ccccc1C(=O)N1CC[C@H](O)[C@@H](O)C1,29,20
CCOCCCN(CC(=O)N(Cc1ccccc1)Cc1ccc(C)s1)C(=O)c1ccc(Cl)c(Cl)c1,-1,5
CCCCOC(=O)c1ccccc1NC(=O)NCCC(=O)N1CCC(C(=O)N2CCCCC2)CC1,18,35
CN(Cc1ccc2c(c1)OCO2)Cc1cc2n(n1)CCCNC2,6,4
CC1CCCC(C)N1NC(=O)c1cccc(N(C)C)c1 (configuration not stated),7,5
COc1ccc(-n2c(O)c(C3=c4ccccc4=NC3=O)sc2=S)cc1,-8,-13
O=C(Nc1nc2c(s1)CCCC2)c1ccccc1Cl,-1,0
CN(CC(O)CN1CCOCC1)C(=O)c1cccnc1Sc1ccccc1 (configuration not stated),4,0
Cc1csc(NC(=O)Cc2cc(-c3ccc4c(c3)OCO4)on2)n1,2,3

Among those listed so far, 3 contain a cyano group.
molecule,NPYLR7 ag,NPYLR7 ag max-min
CC(C)(C#N)c1ccc(NC(=O)NC2CCCC2CO)cc1 (configuration not stated),3,2
N#CCCn1c(CC(=O)NCc2ccccc2[N+](=O)[O-])nc2ccccc21,-14,-20
Cc1ccc2c(c1)N(Cc1cccc(C#N)c1)N=C(C(=O)N1CCCC1)S2(=O)=O,-13,-14

New compounds follow
molecule,NPYLR7 ag,NPYLR7 ag max-min
CC(C)CN(Cc1c(-c2ccc(F)cc2)noc1N1CCN(C)CC1)C(=O)Cc1ccccc1,5,10
CCc1oc2ccccc2c1/C=C/C(=O)N1CCOC2CCCCC21 (configuration not stated),-1&10,18&9
CCc1ccccc1NC(=O)c1c([N+](=O)[O-])cnn1C,-5,-9
Cc1cc(C)cc(N2C(=O)CSC23C(=O)Nc2ccc(Br)cc23)c1 (configuration not stated),-1,-1
Cc1csc(SCC(=O)N2CC(=O)N(CC(C)C)CC(OCc3ccccn3)C2)n1 (configuration not stated),18,9
CCS(=O)(=O)N1CCN(C(=O)C2CCCN(Cc3ccco3)C2)CC1 (configuration not stated),-1,4
CCn1ncc(CN(C)c2cc(C(C)C)nc(C)n2)c1C,-13,-2
Clc1nc(NCCN2CCOCC2)nc(NC2CCCCC2)n1,0,-3
COCCNC(=O)C(NC(=O)C1CCCC1)C1CCN(C(=O)C2CC2)CC1 (configuration not stated),-3,-3
CCOc1ccc(CNC(=O)c2sc3ncccc3c2-n2cccc2)cc1OCC,-4,-7
CCOc1cccc(-c2ccc(Cn3ccnc3)cn2)c1,4,1

Arranged by formula weight (high to low): 3 of the compounds above.
molecule,NPYLR7 ag,NPYLR7 ag max-min
COc1ccc(S(=O)(=O)CCC(=O)N(CCN(C)C)c2nc3c(C)ccc(C)c3s2)cc1,1,0
COc1cc2c(c(OC)c1OC)-c1c(cc3c(c1OC)OCO3)C[C@@H](C)[C@@H](C)C2,7,-3
CCc1ccccc1C(=O)N1CC[C@H](O)[C@@H](O)C1,29,20

This is a subset; rates above refer to the full screens.
